Source: PubChem BioAssay (National Center for Advancing Translational Sciences (NCATS))
TRPV1 potentiator = human TRPV1 potentiation | Q8NER1 | TRPV1-expressing cells, Fluo-8 calcium influx, capsaicin EC20 potentiation; host cell line not named in the record; control for the full effect not named in the record | potentiation, % at 8.33 µM | 320,000 compounds, 0.02% hits | AID 540277; active means potentiation above 80%; inconclusive means 30% to 80%; inactive means below 30%; also: 0% is about no effect
Target sequence (Q8NER1 whole entry, looked up): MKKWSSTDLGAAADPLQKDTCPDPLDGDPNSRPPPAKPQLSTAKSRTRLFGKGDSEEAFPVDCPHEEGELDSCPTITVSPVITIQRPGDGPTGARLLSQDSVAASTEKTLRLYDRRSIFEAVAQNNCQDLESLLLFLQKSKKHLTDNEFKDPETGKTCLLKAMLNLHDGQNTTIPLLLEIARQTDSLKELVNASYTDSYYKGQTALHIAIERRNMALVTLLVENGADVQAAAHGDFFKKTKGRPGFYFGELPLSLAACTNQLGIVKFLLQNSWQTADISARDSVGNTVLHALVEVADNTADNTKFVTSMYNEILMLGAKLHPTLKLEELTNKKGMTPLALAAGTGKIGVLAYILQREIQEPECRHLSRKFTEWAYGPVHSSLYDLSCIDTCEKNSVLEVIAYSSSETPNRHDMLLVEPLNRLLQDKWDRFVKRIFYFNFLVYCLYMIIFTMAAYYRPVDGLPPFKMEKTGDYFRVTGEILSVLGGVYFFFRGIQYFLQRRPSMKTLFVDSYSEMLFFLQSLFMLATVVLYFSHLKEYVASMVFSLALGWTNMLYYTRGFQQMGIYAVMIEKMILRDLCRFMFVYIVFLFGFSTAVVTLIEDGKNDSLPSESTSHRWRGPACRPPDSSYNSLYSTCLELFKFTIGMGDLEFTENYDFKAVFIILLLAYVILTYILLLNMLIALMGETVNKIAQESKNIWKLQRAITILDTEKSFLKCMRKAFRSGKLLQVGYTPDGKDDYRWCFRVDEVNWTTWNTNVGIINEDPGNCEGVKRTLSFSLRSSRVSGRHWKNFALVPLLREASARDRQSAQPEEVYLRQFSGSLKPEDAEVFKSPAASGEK
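TRPV1-expressing cells were cultured overnight at 35.5C and loaded with Fluo-8 calcium dye for 40 to 90 min at room temperature. After a 10 s baseline, compound was added and calcium influx was read kinetically for 3 min (ex 480/em 520 nm).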
D2 PAM = positive allosteric modulators of human D2 dopamine receptor | DiscoveRx D2 beta-arrestin cells, luminescence, 90 min; 100% = 57 uM dopamine signal | P14416 | potentiation, % (test concentration not listed) | AID 624464 | 360,000 compounds, 0.23% hits; active = potentiation of 50% or more; inconclusive = 30% to 50%; inactive = 30% or less;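 also: compound concentration not given in the record; tested on top of an EC20 dose of dopamine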
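PathHunter D2 cells, attached overnight at 37 deg C, received compound in DMSO plus dopamine at EC20 (50 nM final) for 90 min at 37 deg C. Beta-arrestin recruitment was read as luminescence after 1 h with detection reagent at ambient temperature.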
Sfp inh = blocks B. subtilis Sfp PPTase activity; Q9F4F7; Biochemical Sfp PPTase activity, qHTS; Potency, µM, for inactives: max response, negative = inhibition, usual class: inhibitors; 310,000 compounds, 3.5% hits; AID 1490; active = well fitted inhibition curve with a large enough effect; inconclusive = small, poorly fitted or top-dose-only effect, or another doubt; inactive = no such curve, though single readings can be large or run the other way;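 also: the enzyme is Sfp with the accession as filed and its product quenches rhodamine fluorescence; potency is read from the fitted curve at half-maximal effect; 0% = enzyme reaction without inhibitor and -100% = no enzyme wells; top concentration of the series not given in the record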
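Buffer: 50 mM Hepes-Na pH 7.6, 10 mM MgCl2, 0.01% Nonidet P-40, 0.01% BSA. Enzyme 15 nM, pre-exposed to compound 15 min; substrates then added and fluorescence change tracked over 30 min.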
CtBP-E1A blk = inhibitors of CtBP/E1A interaction; 340,000 compounds, 0.49% hits; activity change, % (no concentration beside the values); AID 651724; AlphaScreen GST-E1A/His-CtBP binding, 1536-well; active compounds read low; control for the full effect not named in the record; in the data active means activity change below about -65%; inconclusive means about -30% to -65%; inactive means above about -30%; also: % is scaled to controls: 0 for no effect and ±100 for the full control effect
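GST-E1A and His-tagged CtBP (125 nM each as 5X stock) were preincubated with pin-transferred compound for 2 h at 37 °C in the dark, then glutathione donor and nickel acceptor beads were added for 1 h before AlphaScreen reading.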
PINK1 expr mod = modulators of PINK1 expression | 410,000 compounds, 0.2% hits | Potency, µM (titrated, usually from 76.6 µM), for the others: at the top dose activation (PINK1 increase), actives largely listed as activators | PINK1 immunofluorescence, high-content cytometry, 24 h | AID 624263; active = well fitted activation curve with a large enough effect; inconclusive = small, poorly fitted or top-dose-only effect; inactive = flat fitted curve, though single readings scatter; cell line not stated here;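 also: potency is read from the fitted curve at half-maximal effect; % of control where 0% means no effect; nearly all actives have a fitted effect of over 65% in size; a mitochondrial uncoupler was the plate control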
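PINK1 protein, normally rapidly degraded, was detected by immunofluorescence after 24 hour compound treatment of a stable cell line. Titration data (5 concentrations) came from laser-scanning cytometry, with CCCP-treated wells as controls.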
Six1-Eya2 inh = inhibitors of human Six1/Eya2 interaction; Q15475+O00167; activity change, % (no concentration beside the values); AlphaScreen GST-Six1/His-Eya2 binding, biochemical; active compounds read low; control for the full effect not named in the record; 360,000 compounds, 0.56% hits; in the data active = activity change below about -65%; inconclusive = about -30% to -65%; inactive = above about -30%; also: % is scaled to controls: 0 for no effect and ±100 for the full control effect
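Homogeneous AlphaScreen proximity assay pairing GST-Six1 with His-tagged Eya2 (added as 5X mix: 250 nM and 500 nM) in 50 mM Tris pH 8.0, 300 mM NaCl, 1 mM TCEP. Glutathione donor and nickel acceptor beads; 1 h, 37 °C, dark.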
D2 ag = activates the human D2 dopamine receptor; 360,000 compounds, 0.084% hits; activation, % (test concentration not listed); DiscoveRx PathHunter D2 beta-arrestin, luminescence, 90 min; 100% = 57 uM dopamine signal; P14416; AID 624465; in the data active = activation above about 40%; inconclusive = about 15% to 40%; inactive = below about 15%; also: compound concentration not given in the record; the text of the record calls up to 30% inactive
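Agonist mode: compounds alone added to overnight-plated D2 PathHunter cells for 90 min at 37 C, with 57 uM final dopamine (EC100) defining full response. Beta-arrestin recruitment detected by chemiluminescent reagent, read after 1 h at ambient temperature.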
Starred values were filed as active, the others as inactive; ? = inconclusive; . = not tested or not shown; & = joins results of further samples; [ ] = dose if it differs, or a comment.

SMILES	TRPV1 potentiator	D2 PAM	Sfp inh	CtBP-E1A blk	PINK1 expr mod	Six1-Eya2 inh	D2 ag
Cc1nc(SCC(=O)OCc2ccccc2)c(C#N)c(-c2ccccc2)c1C(=O)Nc1ccccc1	9	7	20%	4	-0.8%	-3	-1.1
Cc1ccc(CN2C(=O)S/C(=C\c3ccccc3OCC(=O)O)C2=O)cc1	?	4	0%	.	-1.1%	0	-4.3
CN(C(=O)C1CCCO1)c1nnc(-c2ccccn2)s1 (stereo not given)	18	20	-16%	-1	2.2%	-1	-2.4
CCN1C(=O)C2(/C(=C(\O)c3ccc4c(c3)OCCO4)C(=O)C(=O)N2CCCOC)c2ccccc21 (stereo not given)	-1	0	20%	-5	0.2%	11	-1.2
CC(=O)Nc1ccc(S(=O)(=O)NCC2CCC(C(=O)N3CC(C)CC(C)C3)CC2)cc1 (stereo not given)	-3	-7	-1%	11	2.3%	-1	-0.7
O=C(COC(=O)c1ncc(Cl)c(Cl)c1Cl)c1ccc(Cl)s1	-17	-11	?	-7	1.2%	10	-7.0
Cc1cc(C(C)(C)C)c(O)c(C)c1CC1=NCCN1	-14	-17	-13%&16%&-18%&3%&13%&16%	19	6.5%	9	9.2
CCCCc1c(O)nc(SCC(=O)N2CCOCC2)n(-c2ccccc2C)c1=O	2	-1	14%	0	-0.3%	2	-3.0
CC(C(=O)Nc1c2c(cc3c1CCC3)CCC2)N1CCCC1 (stereo not given)	7	-23	-19%	4	5.6%	-4	-5.3
COc1ccc(NC(=O)c2cnc(C)cn2)cc1-n1cnnn1	0	-15	9%	6	2.6%	1	-4.1
COC(C(=O)NC(C(C)C)C(C)C)c1ccccc1 (stereo not given)	-6	-6	-6%	4	-0.4%	11	0.1
CCCCN1CN(Cc2ccco2)CNC1=S	-2	-6	21%	-5	3.8%	11	-2.6
CC(=O)N1CCc2cc(S(=O)(=O)NC(C(=O)Nc3ccc4c(c3)OCCO4)C(C)C)ccc21 (stereo not given)	9	-6	-4%	1	-0.6%	2	0.7
COc1ccc(OC)c(/C=N/NC(=O)c2cc(-c3ccc(C)o3)nc3ccccc23)c1	12	4	-48%	-5	5.7%	-13	-1.6
CC(C)(C)n1nnnc1C(c1cccnc1)N1CCN(c2ccccn2)CC1 (stereo not given)	7	-3	18%	2	0.6%	13	-0.7
CCc1ccc(C(=O)COC(=O)c2cccnc2Cl)cc1	-11	-9	11%	2	-0.5%	-3	2.6
COCCCN1C(=O)c2ccc(C(=O)O)cc2C1=O	3	-5	15%	12	4.4%[38.3 µM]	5	0.0
CCC(C)c1ccc(S(=O)(=O)N2CCN(S(=O)(=O)c3ccc(NC(C)=O)cc3)CC2)cc1 (stereo not given)	-4	-4	11%	0	0.8%	5	-3.8
O=C(Cc1ccccc1[N+](=O)[O-])N1CCN(c2ccc(F)cc2)CC1	2	0	8%	-5	-0.8%	-5	4.2
CC(C)Nc1oc(Cc2cccc3ccccc23)nc1C#N	-2	-13	0%	1	5.8%	-4	-1.2
O=C(c1ccc(COc2ccccc2Cl)o1)N1CCCC1	-1	4	-10%	-2	0.2%	-2	1.5
CCCC#Cc1cnc2c(c1)C(=O)N([C@H](C)CO)C[C@@H](C)[C@H](CN(C)S(=O)(=O)c1cccc(OC)c1)O2	.	0	.	-13	3.9%	-2	3.9
COc1ccc(CCNC(=O)CSc2nnc(NC(C)=O)s2)cc1OC	18	-13	1%	7	1.4%	15	-0.9
CN(C)C1=NC[C@H](Cc2ccccc2)N1CC1CCCCC1	-13	-8	.	-1	1.1%	-4	-3.2
COC(=O)c1cc(S(=O)(=O)N2CCC(c3ccccc3)C2)c[nH]1 (stereo not given)	-16	-7	-3%	.	1.7%	3	1.0
CCC(OC(=O)CCc1nc2ccccc2[nH]c1=O)C(=O)c1ccccc1 (stereo not given)	21	-10	3%	-7	0.0%	-1	0.9
Cc1c(NS(=O)(=O)c2cc(C(=O)OCC(=O)c3ccccc3F)ccc2Cl)c(=O)n(-c2ccccc2)n1C	.	-25	.	5	-0.1%	3	-2.5
C/C=C\C=C/C(=O)Nc1cccc(C2=NOC3(C2)C[C@H](C(N)=O)N(C(=O)CC)C3)c1 (stereo not given in full)	1	-17	13µM*	2	?	-12	-2.2
O=C(Cc1c(O)c2ccccc2oc1=O)c1ccc(F)cc1	8	-27	.	9	1.4%	-1	-6.8
COc1cc(NC(=O)c2ccc(C)cc2)c(OC)cc1NC(=O)CN1CCOCC1	-4	10	13%	-1	-1.1%	-5	0.3
COC(=O)c1cc(C)sc1NC(=O)CCCC(=O)O	-26	20	16%	5	-0.9%	-1	-1.3
CC1C(c2ccc3c(c2)OCO3)c2cc3c(cc2OC1N1CCOCC1)OCO3 (stereo not given)	.	-1	.	?	0.1%	?	-0.2
CCOC(=O)N1CCN(C(=O)Cn2cc3c(n2)CCCC3)CC1	3	22	21%	10	1.0%	12	-3.3
CCOc1ccc(CNCCc2ccc(S(N)(=O)=O)cc2)cc1	9	-5	3%	2	0.9%	5	-5.0
O=C(c1ccccc1)c1cccn1CC(=O)N1CCN(c2ccc(F)cc2)CC1	17	-13	2%	-2	-0.3%	-6	2.3
CCOC(=O)CSc1nc(C)c(C(C)=O)cc1C(N)=O	-1	-5	0%	1	-0.7%	9	-4.8
Cc1cc(C)c(-c2csc(NC(=O)/C=C/c3cccs3)n2)c(C)c1	-1	-30	7%	5	2.0%	-1	0.0
Cc1nc(-c2ccc(S(=O)(=O)NCC3CCN(C(=O)OC(C)(C)C)CC3)s2)cs1	-2	-4	-9%	.	-1.6%	-1	-1.8
O=C(NNC(=O)c1ccccc1O)c1ccc(S(=O)(=O)Nc2ccccc2F)cc1	-4	-12	.	-24	-1.1%	-26	-2.5
Cc1cc(NC(=O)Cn2nnc3sc4c(c3c2=O)CCCC4)no1	6	-8	25%	-13	-5.0%[38.3 µM]	-4	1.2
Cc1cc(NC(=O)Nc2ccc(F)cc2)no1	-4	1	5%	5	-0.8%	-2	-4.2
CC(=O)Nc1ccc(NC(=O)CSc2nc3ccccc3o2)cc1	-16	2	-5%	7	-1.4%	5	0.0
COc1ccc(-c2nnn(Cc3ccccc3)n2)cc1	0	-4	-14%	-2	-0.7%	11	-4.6
O=C(Nc1ccc2oc(-c3ccccc3Cl)nc2c1)c1ncn[nH]1	-3	-1	-3%	6	-4.3%[38.3 µM]	?	0.3
CCCCc1ccc(NC(=O)N2CCN(c3cc(C)nc4ccccc34)CC2)c(C)c1	-20	-10	-1%	0	15%	0	-1.6
COc1ccc([C@H]2CC(=O)C=C(c3cc(C(F)(F)F)cc(C(F)(F)F)c3)C2)cc1	-3	-7	.	.	1.2%	-2	-2.8
O=C(Nc1ccc(C2CCCCC2)cc1)C1CCCN(c2ncccn2)C1 (stereo not given)	-7	1	6%	15	16%[38.3 µM]	3	-0.6
CCOc1ccc(C(=O)NCCCN2CCOCC2)cc1OCC	6	-12	10%	.	1.1%	5	3.1

A different layout for 13 compounds above.
Sequence of screens: TRPV1 potentiator, D2 PAM, Sfp inh, CtBP-E1A blk, PINK1 expr mod, Six1-Eya2 inh, D2 ag
CCOC(=O)CSc1nc(C)c(C(C)=O)cc1C(N)=O
    -1, -5, 0%, 1, -0.7%, 9, -4.8
Cc1cc(C)c(-c2csc(NC(=O)/C=C/c3cccs3)n2)c(C)c1
    -1, -30, 7%, 5, 2.0%, -1, 0.0
Cc1nc(-c2ccc(S(=O)(=O)NCC3CCN(C(=O)OC(C)(C)C)CC3)s2)cs1
    -2, -4, -9%, ., -1.6%, -1, -1.8
O=C(NNC(=O)c1ccccc1O)c1ccc(S(=O)(=O)Nc2ccccc2F)cc1
    -4, -12, ., -24, -1.1%, -26, -2.5
Cc1cc(NC(=O)Cn2nnc3sc4c(c3c2=O)CCCC4)no1
    6, -8, 25%, -13, -5.0%[38.3 µM], -4, 1.2
Cc1cc(NC(=O)Nc2ccc(F)cc2)no1
    -4, 1, 5%, 5, -0.8%, -2, -4.2
CC(=O)Nc1ccc(NC(=O)CSc2nc3ccccc3o2)cc1
    -16, 2, -5%, 7, -1.4%, 5, 0.0
COc1ccc(-c2nnn(Cc3ccccc3)n2)cc1
    0, -4, -14%, -2, -0.7%, 11, -4.6
O=C(Nc1ccc2oc(-c3ccccc3Cl)nc2c1)c1ncn[nH]1
    -3, -1, -3%, 6, -4.3%[38.3 µM], ?, 0.3
CCCCc1ccc(NC(=O)N2CCN(c3cc(C)nc4ccccc34)CC2)c(C)c1
    -20, -10, -1%, 0, 15%, 0, -1.6
COc1ccc([C@H]2CC(=O)C=C(c3cc(C(F)(F)F)cc(C(F)(F)F)c3)C2)cc1
    -3, -7, ., ., 1.2%, -2, -2.8
O=C(Nc1ccc(C2CCCCC2)cc1)C1CCCN(c2ncccn2)C1 (stereo not given)
    -7, 1, 6%, 15, 16%[38.3 µM], 3, -0.6
CCOc1ccc(C(=O)NCCCN2CCOCC2)cc1OCC
    6, -12, 10%, ., 1.1%, 5, 3.1

New compounds follow.
SMILES	TRPV1 potentiator	D2 PAM	Sfp inh	CtBP-E1A blk	PINK1 expr mod	Six1-Eya2 inh	D2 ag
Cc1c(NS(=O)(=O)c2ccc(N=NN(C)C)cc2)c(=O)n(-c2ccccc2)n1C	11	-9	8%	15	0.8%	4	-4.3
CC1CCN(C(=O)COC(=O)CCC(=O)c2ccc(Cl)cc2)CC1	.	-6	.	15	-0.5%	-1	5.3
NC(=O)COC(=O)CC12CC3CC(CC(Br)(C3)C1)C2	6	-3	18%	-20	-1.5%	-12	2.7
COc1cccc(CN2CCN(Cc3[nH]c4ccccc4c3C)CC2CCO)c1 (stereo not given)	-11	-4	7%	-9	2.2%	-9	-1.0
